StopGo reporter: FMDV 2A StopGo reporter, luciferase signal; Potency, µM (highest dose often 57.9 µM), for the others: at the highest dose signal change, negative = less light; hit rate 1.2% among 410,000; human cells with a luciferase reporter of 2A StopGo recoding; control for the full effect not named in the record; AID 1159524; active = well fitted falling curve with a large enough effect; inconclusive = small, poorly fitted or top-dose-only effect; inactive = no such curve, though single readings can be large or run the other way; tested in HEK293T cells; also: nearly all actives have a fitted effect of over 45% in size; luciferase light after 4 h
Cruzain inh noDet: blocks cruzain activity in detergent-free assay | P25779 | purified cruzain, Z-FR-AMC fluorescence, no detergent | AID 1476 | Potency, µM, inactives show max response, negative = inhibition, actives largely listed as inhibitors | hit rate 2.3% among 200,000;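 also: plate controls were enzyme without inhibitor for no effect and buffer without enzyme for full effect; nearly all actives have a fitted effect of over 40% in size; top concentration of the series not given in the record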
Target sequence (P25779 123-467 limits assumed): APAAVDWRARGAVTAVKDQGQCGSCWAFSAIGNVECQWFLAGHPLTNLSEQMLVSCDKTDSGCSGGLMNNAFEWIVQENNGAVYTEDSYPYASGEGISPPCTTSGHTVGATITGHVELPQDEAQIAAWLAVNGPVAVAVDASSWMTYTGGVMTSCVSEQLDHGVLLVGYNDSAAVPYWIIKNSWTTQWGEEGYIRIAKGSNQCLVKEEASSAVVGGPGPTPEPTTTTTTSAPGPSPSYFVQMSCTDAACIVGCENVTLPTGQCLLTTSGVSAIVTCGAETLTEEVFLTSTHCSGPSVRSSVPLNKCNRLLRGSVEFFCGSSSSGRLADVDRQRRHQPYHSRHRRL
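Detergent-free condition (0.00005% Triton X-100) in acetate buffer pH 5.5 with DTT. 1.5 nM enzyme and compound were pre-mixed 15 min, then 2 uM Z-FR-AMC substrate added; reaction progress from fluorescence change between first and third reads (60 s).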
Cruzain inh Det: cruzain (T. cruzi) inhibition with detergent; P25779; purified cruzain, Z-FR-AMC fluorescence, 0.01% Triton; Potency, µM, inactives show max response, negative = inhibition, most hits filed as inhibitors; hit rate 0.43% among 200,000;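 also: plate controls were neutral wells for no effect and buffer without enzyme for full effect; nearly all actives have a fitted effect of over 40% in size; top concentration of the series not given in the record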
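Purified cruzain (1.5 nM final) was preincubated with compounds for 15 min at room temperature in 100 mM sodium acetate pH 5.5, 5 mM DTT, 0.01% Triton X-100. Reaction started with 2 uM Z-FR-AMC; AMC fluorescence change over 60 s gave activity.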
Active calls of the source: *; ? = inconclusive; & = joins results of further samples; [ ] = dose if it differs, or a comment. Unless noted, calls follow the shape of the dose curve; as a rule, active = well fitted curve in the direction sought with a large enough effect; inconclusive = small, poorly fitted or top-dose-only effect, or another doubt; inactive = no such curve, though single readings can be large; an effect the other way counts as inactive or inconclusive. Unless noted, % is scaled to controls: 0 for no effect and ±100 for the full control effect; potency is read from the fitted curve at half-maximal effect. These rows are one share of the data, so the mix of outcomes need not match the whole.

Value order: Cruzain inh Det, StopGo reporter, Cruzain inh noDet
COc1ccccc1CN1CCC2(CC1)CCN(C(=O)c1csnn1)CC2
 : -9.6%, -1%, -9%
Cc1ccccc1-c1nc(-n2ccnc2)c2ccccc2n1
 : -5.6%, -21%, 6%
CC1(C)CC[C@]2(C(=O)O)CC[C@@]3(C)C(=CCC4[C@@]5(C)CCC(O)[C@@](C)(CO)C5CC[C@@]43C)C2C1 (some centres not stated)
 : -2.5%, -13%, 10%
CCNc1ncc2nc(CCc3ccccc3)c(=O)n(Cc3ccc(F)cc3)c2n1
 : 3.5%, -8%, 2%
CC1=C2CCC3C4CCC(=O)[C@@]4(C)CCC3[C@]2(C)CCC1=O (some centres not stated)
 : 7.2%, -9%, 5%
N#Cc1cccc(-c2ccc3ncnc(NCc4cccs4)c3c2)c1
 : -11%, -17%, -10%
Cc1cnc(CNc2cc(-c3ccccc3CN(C)C)ncn2)cn1
 : -4.6%, -7%, -2%
COc1cccc(Cn2c(=O)c(CCc3ccccc3)nc3cnc(N(C)C)nc32)c1
 : -2.4%, -8%, 9%
N#Cc1c(Cl)c(Cl)c(Cl)c(C#N)c1Cl
 : -1.2%, ?, ?
CN1CCN(c2ncc3nc(CCc4ccccc4)c(=O)n(Cc4ccc(F)cc4)c3n2)CC1
 : -6.8%, -12%, -4%
O=C(c1ccncc1)N1CCC[C@@]2(CCN(c3ccncc3)C2)C1
 : 4.4%, 5%, -5%
CCNc1ncc2nc(-c3cc(F)cc(F)c3)c(=O)n(-c3ccccc3)c2n1
 : 2.2%, -7%, -16%
Cc1ccccc1-c1nc(N2CCNCC2)c2ccccc2n1
 : 5.8%, -1%, -4%
O=c1c(-c2ccc(Cl)cc2)nc2cnc(N3CCNCC3)nc2n1Cc1ccc(F)cc1
 : 0.1%, -5%, 5%
COc1c2c(cc3c1C(NC(N)=O)[N+](C)(C)CC3)OCO2 (configuration not stated)
 : 2.5%, -13%, -1%
Cc1[nH]c2ccccc2c1CN(C)C
 : -16%, -20%, -10%
COc1cc2c(cc1OC)C1CCC3=C([C@H](C)OC3=O)N1CC2 (some centres not stated)
 : -1.9%, -30%, -5%
COc1cccc(-c2cc(NCc3ccc(OC)cc3OC)ncn2)c1
 : 1.3%, 8%, -1%
CCCCCCCCCCC/C=C\C/C=C\CCCC(=O)O
 : -0.7%, -15%[6.7 µM], -12%
CC(=O)O[C@H]1C[C@H]2CC[C@@H]3[C@H]4C[C@@H]([N+]5(C)CCCCC5)[C@@H](OC(C)=O)[C@]4(C)CC[C@@H]3[C@@]2(C)C[C@@H]1[N+]1(C)CCCCC1
 : 0.1%, -7%, 0%
CC1=C(/C=C/C(C)=C/C=C/C(C)=C/C=C/C=C(C)/C=C/C=C(C)/C=C/C2=C(C)CCCC2(C)C)C(C)(C)CCC1
 : 4.9%, 5µM*, 4%
COC(=O)[C@H](CCCN=C(N)N)NC(=O)CCCc1c(-c2ccccc2)[nH]c2c(F)cc(F)cc12
 : 0.8%, -17%, 7%
CC(=O)[C@H](CC(C)C)NC(=O)[C@@H](CC(C)C)NC(=O)[C@H](CC(C)C)NC(=O)OCc1ccccc1
 : 0.0035µM*, ?, 0.013µM*
Cc1cc(C)cc(C(=O)N(C)[C@H](Cc2ccc(-c3ccccc3)cc2)C(=O)N[C@@H](Cc2c[nH]c3ccccc23)C(=O)O)c1
 : -28%, -22%, ?
Fc1ccc(Nc2ccnc(-c3ccoc3)n2)cc1
 : 2.3%, 24%, -28%
C=C1C2CC[C@@]3(C)C(c4ccoc4)OC(=O)C[C@@]13OC1CC(O)C(C)(C)C(CC(=O)OC)[C@@]12C (some centres not stated)
 : -1.7%&3.8%, -13%&2%, 7%&16%
CNC(=O)[C@H]1O[C@H](n2cnc3c(NCc4cccc(I)c4)nc(Cl)nc32)[C@@H](O)[C@@H]1O
 : -3.9%, -27%, ?
COc1ccc(CCN(C)CCCN2CCc3cc(OC)c(OC)cc3CC2=O)cc1OC
 : 1.6%&-3.5%, -15%, -3%&-7%
FC(F)(F)c1ccccc1-c1cc(NCc2ccccc2)ncn1
 : -3.7%, -9%, 2%
Oc1ccc2c(c1)OC(c1ccc(O)c(O)c1)C(O)C2 (configuration not stated)
 : 2.4%, -10%, 6%

The list goes on (two carried over from the part before).
Value order: Cruzain inh Det, StopGo reporter, Cruzain inh noDet
FC(F)(F)c1ccccc1-c1cc(NCc2ccccc2)ncn1
 : -3.7%, -9%, 2%
Oc1ccc2c(c1)OC(c1ccc(O)c(O)c1)C(O)C2 (configuration not stated)
 : 2.4%, -10%, 6%
COCCn1c(=O)c(-c2ccccc2)nc2cnc(N3CCN(C)CC3)nc21
 : -23%, -17%, ?
CN1CCN(c2ncc3ncc(=O)n(CCc4ccccc4)c3n2)CC1
 : -8.0%, -4%, -22%
COCCn1c(=O)c(-c2cn(C)c3ccccc23)nc2cnc(N3CCOCC3)nc21
 : 1.5%, -5%, 8%
C#C[C@@]1(O)CCC2C3CCc4cc(O)ccc4C3CC[C@@]21C (some centres not stated)
 : -4.5%, -1%, 0%
CCCCC[C@H](O)/C=C/[C@@H]1[C@H]2C/C(=C/CCCC(=O)O)C[C@H]2C[C@H]1O
 : 3.4%, 2%, 1%
CCCCC/C=C\C[C@@H](O)/C=C/C=C/C=C\[C@@H](O)CCCC(=O)O
 : 1.1%&3.9%, -10%[0.463 µM], 7%&-5%
COc1cccc(Cn2c(=O)c(-c3ccc(F)cc3)nc3cnc(OC)nc32)c1
 : -7.4%, -16%, -2%
CCCCCCCCCCCCCCCCOCC(COP(=O)([O-])OCC[N+](C)(C)C)OC (configuration not stated)
 : -0.2%, 2%[6.7 µM], 14%
O=C(c1ccncc1)N1CCC2(CC1)CCN(C(c1ccccc1)c1ccccc1)CC2
 : -4.4%, -18%, 6%
CCN1C[C@]2(COC)C(O)C[C@H](OC)[C@@]34C5C[C@]6(O)C(OC)C(O)[C@](OC(C)=O)(C5C6OC(=O)c5ccccc5)C(C(OC)C23)C14 (some centres not stated)
 : 4.5%, -4%, -10%
COc1cc(C/C=C/c2ccccc2)c(OC)cc1O
 : 3.5%, 10%, -3%
c1ccc2c(N3CCNCC3)nc(-c3ccoc3)nc2c1
 : 2.0%, 12%, 4%
COCCn1c(=O)c(-c2cn(C)c3ccccc23)nc2cnc(N3CCNCC3)nc21
 : -2.8%, -13%, -7%
CN(C)c1ncc2nc(CCc3ccccc3)c(=O)n(Cc3ccc(F)cc3)c2n1
 : -1.4%, 11%, 3%
N#Cc1ccc(CN2CCC3(CC2)CCN(C(=O)c2csnn2)CC3)cc1
 : 0.1%, -13%, -13%

Arranged by molar mass (largest number first): 3 of the compounds above
Value order: Cruzain inh Det, StopGo reporter, Cruzain inh noDet
CN(C)c1ncc2nc(CCc3ccccc3)c(=O)n(Cc3ccc(F)cc3)c2n1
 : -1.4%, 11%, 3%
CN1CCN(c2ncc3ncc(=O)n(CCc4ccccc4)c3n2)CC1
 : -8.0%, -4%, -22%
C#C[C@@]1(O)CCC2C3CCc4cc(O)ccc4C3CC[C@@]21C (some centres not stated)
 : -4.5%, -1%, 0%

Additional records follow:
Value order: Cruzain inh Det, StopGo reporter, Cruzain inh noDet
NCCCCCCNS(=O)(=O)c1ccc2c(Cl)cccc2c1
 : -2.2%, 32%[activator], 0%
Cc1ccccc1-c1nc(NCc2cccnc2)c2ccccc2n1
 : 1.6%, -13%, 7%
c1ccc(N2CC3(CCNCC3)C2)cc1
 : -2.9%, 7%, -7%
COC(=O)c1csc(C(=O)c2c[nH]c3ccccc23)n1
 : -0.9%, -11%, -3%
Cc1cnc(CNc2ccnc(-c3ccc(N(C)C)cc3)n2)cn1
 : ?, 25%, -11%
CC(=O)NCCNc1ccnc(-c2ccccc2C)n1
 : -4.2%, -3%, 7%
Cc1cnc(CNc2ncnc3ccc(-c4ccc(C(=O)N(C)C)cc4)cc23)cn1
 : -2.3%, -2%, -6%
COc1ccc(-n2c(=O)c(-c3ccccc3)nc3cnc(N4CCOCC4)nc32)cc1
 : -1.3%, -2%, -2%
Cc1ccccc1-c1nc(N(C)C)c2ccccc2n1
 : -0.4%, -1%, -4%
CN(C)Cc1ccccc1-c1nc(N2CCOCC2)c2ccccc2n1
 : -1.4%, -8%, -3%
CC(=O)NCCNc1nc(-c2c(C)noc2C)nc2ccccc12
 : -0.3%, -12%, 10%
O=C(c1cccc(F)c1)N1CCC2(CC1)CN(c1ccccn1)C2
 : -9.1%, -17%, -10%
O=c1c(-c2ccccc2)nc2cnc(N3CCOCC3)nc2n1C1CC1
 : 1.2%, -10%, -4%
COc1ccc(C(=O)N2CCC[C@@]3(CCN(C(=O)Nc4ccccc4)C3)C2)cc1
 : -0.4%, 10%, 13%
CN(C)c1ncc2nc(-c3ccc(F)cc3)c(=O)n(CCC#N)c2n1
 : 3.2%, -4%, 9%
COC(=O)C(C)c1ccc(C(=O)c2cccs2)cc1 (configuration not stated)
 : -2.1%, 40%[activator], -5%
C=C1c2c(Cl)ccc(O)c2C(O)=C2C(=O)[C@]3(O)C(O)=C(C(N)=O)C(=O)C(N(C)C)C3C(O)C12 (some centres not stated)
 : -21%, -15%, -11%
O=C(c1cccc(F)c1)N1CCC2(CCCN(c3ccncc3)C2)CC1
 : -0.9%, 0%, -8%
COc1cc(OC)c2c(c1)OC(c1ccc(OC)c(OC)c1)C(O)C2 (configuration not stated)
 : 11%, -13%, 4%
NCCCCCCCCCCNS(=O)(=O)c1cccc2c(Cl)cccc12
 : -11%, 36%[activator], 2%
O=C(c1csnn1)N1CCC2(CC1)CN(Cc1cc(C(F)(F)F)cc(C(F)(F)F)c1)C2
 : 1.1%, -8%, 1%
O=C(NC[C@H](O)c1ccccc1)c1ccccc1
 : 1.3%, 39%[activator], -4%
COc1cccc(-c2cc(=O)c3ccc(OC)cc3o2)c1
 : ?, 42%[activator], 12%
C=CCC1(C(C)CCC)C(=O)N=C(S)NC1=O (configuration not stated)
 : -0.4%, -6%, -1%
CC(C)c1c(C(=O)Nc2ccccc2)c(-c2ccccc2)c(-c2ccc(F)cc2)n1CC[C@@H](O)C[C@@H](O)CC(=O)O
 : -3.5%, -13%, ?
O=C(c1cnccn1)N1CCC2(CCCN(c3ccccn3)C2)CC1
 : -1.4%, 7%, -3%
O=C(Oc1ccccc1)N1CCC2(CC1)CCN(c1ccccn1)CC2
 : -2.4%, -30%, -20%
C=C1C2CCC3[C@@](CC[C@@H]4C(C(=O)O)CC(OC5OC(CO)C(OS(=O)(=O)O)C(OS(=O)(=O)O)C5OC(=O)CC(C)C)C[C@]34C)(C2)C1O (some centres not stated)
 : 0.1%, 9%, 1%
Cn1cc(C2=C(c3cn(CCCSC(=N)N)c4ccccc34)C(=O)NC2=O)c2ccccc21
 : -17%, -11%, ?
CCCCCCOC(=O)C1(O)CC2OC1(C)n1c3ccccc3c3c4c(c5c6ccccc6n2c5c31)C(=O)NC4 (configuration not stated)
 : 2.8%, 3%[4.63 µM], -16%
N#Cc1ccc(CN2CCC3(CC2)CCN(C(=O)c2cnccn2)CC3)cc1
 : 1.0%, -16%, 0%
CN1CC[C@@]2(CCCN(C(=O)c3cccc(F)c3)C2)C1
 : 0.2%, -13%, -3%
O=C(O)c1ccccc1OP(=O)(O)O
 : -0.2%&1.7%, 1%, 7%&-2%
COc1ccc2c(c1)OC1(O)COc3cc(OC)c(OC)cc3C1=C2 (configuration not stated)
 : -12%, -13%, 10%
O=C(c1ccncc1)N1CCC[C@@]2(CCN(Cc3nccs3)C2)C1
 : -0.4%, -11%, 2%
Cc1cc(C)c(S(=O)(=O)Nc2cccc(C(F)(F)F)c2)c(C)c1
 : -6.5%, 28%, -2%
CC1(C)CC[C@]2(C)CC[C@@]3(C)C(=CCC4[C@@]5(C)CCC(O)C(C)(C)C5CC[C@@]43C)C2C1 (some centres not stated)
 : 4.4%, -6%, 6%
CN(C)c1ccc(-c2ccc3ncnc(-n4ccnc4)c3c2)cc1
 : -5.5%, -2%, 12%
O=S(=O)(c1ccccc1)N1CCC2(CCCN(c3ccncc3)C2)CC1
 : 0.7%, ?, 3%
C=CC1=C(C)/C(=C/c2[nH]c(Cc3[nH]c(/C=C4\NC(=O)C(C)=C4C=C)c(C)c3CCC(=O)O)c(CCC(=O)O)c2C)NC1=O
 : -7.9%, 8%, ?
OCC(O)C(O)C(O)C(O)C(O)CO (configuration not stated)
 : 2.7%, -2%, 2%
C[C@H](N)C(=O)O
 : 0.6%, -12%, -1%
COc1cc2c(cc1OC)OC(C)(C)C=C2
 : 0.4%, 16%, -9%
CCCCCCCCCCCCCCCC(=O)C(F)(F)F
 : 0.5%, -20%, 6%
COCCn1c(=O)c(-c2cccc(C#N)c2)nc2cnc(N3CCOCC3)nc21
 : 3.0%, -7%, -6%
N#CCCn1c(=O)c(CCc2ccccc2)nc2cnc(N3CCOCC3)nc21
 : 0.1%, -26%, 22%
